Assay outcomes from PubChem.
Sfp inh: Sfp phosphopantetheinyl transferase inhibition; Q9F4F7; Biochemical Sfp PPTase activity, qHTS; Potency, µM, for the others: max response, negative = inhibition, usual class: inhibitors; 310,000 compounds, 3.5% hits; AID 1490; active means well fitted inhibition curve with a large enough effect; inconclusive means small, poorly fitted or top-dose-only effect, or another doubt; inactive means no such curve, though single readings can be large or run the other way;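 further: the enzyme is Sfp with the accession as filed and its product quenches rhodamine fluorescence; potency means the concentration at half of the fitted maximal effect; 0% = enzyme reaction without inhibitor and -100% = no enzyme wells; top concentration of the series not given in the record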
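Step 1, compound plus 15 nM Sfp-PPTase, 15 min, room temperature. Step 2, add rhodamine-CoA (5 uM) and BHQ-2-YbbR (12.5 uM). Step 3, read 525/598 nm fluorescence at 0 and 30 min.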
gsp antag: gsp mutant antagonism; Potency, µM (doses to about 76.9 µM), for inactives: at the top dose activity change, negative = inhibition, usual class: inhibitors; gsp-mutant cells, cAMP HTRF, 30 min; control for the full effect not named in the record; 340,000 compounds, 0.4% hits; active = falling curve of any shape with a large fitted effect; inconclusive = falling curve, mostly with a smaller effect; inactive = flat or rising curve; cell line not stated here;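 further: intracellular cAMP measured with PDE inhibitor Ro 20-1724 present during compound exposure; potency means the concentration at half of the fitted maximal effect; on the % scale 0 is the no-effect control and ±100 the full control effect; nearly all actives have a fitted effect of over 65% in size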
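G418-selected cells were plated in DMEM/10% FBS for 16-24 h at 37C, then treated with compounds plus the PDE inhibitor […] (300 uM solution added) for 30 min at 37C. Intracellular cAMP was measured by HTRF after 30 min lysis at room temperature.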
ClpP mod: qHTS Assay for Activators of ClpP; ATP-dependent Clp protease proteolytic subunit (Bacillus subtilis (strain 168)), P80244; purified B. subtilis ClpP, FRET peptide cleavage, 20 min; Potency, µM (doses to about 57.5 µM), without a hit: top-dose activity change, negative = active; 340,000 compounds, 1.9% hits; AID 651965, 2013; active = well fitted falling curve with a large enough effect; inconclusive = small, poorly fitted or top-dose-only effect; inactive = no such curve, though single readings can be large or run the other way; further: potency means the concentration at half of the fitted maximal effect; the source files actives as falling curves though it sought activators and does not explain the sign; nearly all actives have a fitted effect of over 65% in size; many hits overshoot -100%
Target sequence (P80244 whole entry, looked up): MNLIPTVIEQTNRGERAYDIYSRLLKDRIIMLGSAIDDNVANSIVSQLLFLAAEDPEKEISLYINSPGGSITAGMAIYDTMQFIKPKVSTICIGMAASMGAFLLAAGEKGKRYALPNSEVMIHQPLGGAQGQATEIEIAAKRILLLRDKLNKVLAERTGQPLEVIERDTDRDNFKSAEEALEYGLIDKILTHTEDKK
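FRET quenching reversal measured ClpP activation: 10 microg/mL B. subtilis ClpP at pH 8 with the FRET-FV decapeptide, read at 430 nm after 320 nm excitation. The 20-min minus 0-min signal was scaled between DMSO/no-enzyme wells and ADEP (5.8 microM final).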
CtBP-E1A inh: inhibitors of CtBP/E1A interaction | AlphaScreen GST-E1A/His-CtBP binding, 1536-well; stronger effect = lower value; control for the full effect not named in the record | activity change, % (test concentration not listed) | 340,000 compounds, 0.49% hits | AID 651724; in the data active means activity change below about -65%; inconclusive means about -30% to -65%; inactive means above about -30%; further: on the % scale 0 is the no-effect control and ±100 the full control effect
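In 5 uL wells, 23 nL compound meets equimolar GST-E1A and His-CtBP (5X stock 125 nM each) for 2 h, 37 °C. Beads (5X, 50 ug/mL) then 1 h, 37 °C, dark.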
TRPV1 PAM: enhances activation of the human vanilloid receptor TRPV1; potentiation, % at 8.33 µM; 320,000 compounds, 0.02% hits; TRPV1-expressing cells, Fluo-8 calcium influx, capsaicin EC20 potentiation; host cell line not named in the record; control for the full effect not named in the record; Q8NER1; active means potentiation above 80%; inconclusive means 30% to 80%; inactive means below 30%; further: 0% is about no effect
Target sequence (Q8NER1 whole entry, looked up): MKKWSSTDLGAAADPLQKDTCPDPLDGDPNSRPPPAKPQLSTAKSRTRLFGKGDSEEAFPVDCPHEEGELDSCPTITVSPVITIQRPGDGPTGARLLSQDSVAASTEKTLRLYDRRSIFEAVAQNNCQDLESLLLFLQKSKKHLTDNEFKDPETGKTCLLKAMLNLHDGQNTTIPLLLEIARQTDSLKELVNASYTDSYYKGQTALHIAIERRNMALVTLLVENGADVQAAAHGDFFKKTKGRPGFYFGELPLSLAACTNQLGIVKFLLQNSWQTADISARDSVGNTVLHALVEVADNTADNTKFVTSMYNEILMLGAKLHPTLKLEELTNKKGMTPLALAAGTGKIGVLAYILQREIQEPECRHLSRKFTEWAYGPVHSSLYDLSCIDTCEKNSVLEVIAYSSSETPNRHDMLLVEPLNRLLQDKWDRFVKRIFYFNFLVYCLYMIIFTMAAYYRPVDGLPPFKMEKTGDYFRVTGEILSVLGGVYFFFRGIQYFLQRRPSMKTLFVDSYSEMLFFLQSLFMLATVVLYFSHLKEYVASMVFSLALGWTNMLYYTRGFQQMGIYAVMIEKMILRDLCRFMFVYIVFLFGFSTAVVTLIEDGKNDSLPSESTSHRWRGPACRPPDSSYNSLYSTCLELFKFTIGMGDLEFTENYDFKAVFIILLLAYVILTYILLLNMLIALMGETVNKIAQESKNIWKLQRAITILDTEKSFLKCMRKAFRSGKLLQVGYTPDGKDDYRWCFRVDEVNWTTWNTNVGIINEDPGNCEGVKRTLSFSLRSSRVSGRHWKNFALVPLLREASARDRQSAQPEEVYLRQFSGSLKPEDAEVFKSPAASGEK
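TRPV1-expressing cells were cultured overnight at 35.5C and loaded with Fluo-8 calcium dye for 40 to 90 min at room temperature. After a 10 s baseline, compound was added and calcium influx was read kinetically for 3 min (ex 480/em 520 nm).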
Menin-MLL FL inh: inhibitors of human menin-MLL interaction, wild-type MLL peptide; FP activity change, % at 61.4 µM; Fluorescence polarization, fluorescein-MLL peptide displacement from menin; 290,000 tested, under 10 active; inconclusive = falling polarisation curve, or a change in total fluorescence; inactive = total fluorescence flat and polarisation flat or rising; no compound was filed as active; the % refers to the polarisation; negative = inhibition;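 further: % of control where 0% means no effect; inhibitors lower the polarisation; unlabelled MLL peptide was the positive control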
gsp ag: gsp mutant agonism; AID 624287; Potency, µM (top dose mostly 76.9 µM), inactives show at the highest dose activation (cAMP increase), actives largely listed as activators; 340,000 compounds, 0.13% hits; gsp mutant cells, cAMP HTRF, 30 min; control for the full effect not named in the record; active = well fitted activation curve with a large enough effect; inconclusive = small, poorly fitted or top-dose-only effect, or another doubt; inactive = no such curve, though single readings can be large or run the other way; cell line not stated here;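 further: phosphodiesterase inhibitor Ro 20-1724 added with compounds to block cAMP breakdown; potency means the concentration at half of the fitted maximal effect; nearly all actives have a fitted effect of over 60% in size; about a fifth of the inactives were tested at one dose only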
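Cells stably selected in G418 were plated at 2000/well, grown 16-24 hr, then given compounds in DMSO with the PDE inhibitor […] (300 uM solution added) for 30 min at 37C; cAMP was read by HTRF.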
Numbers without * were called inactive; ? = inconclusive; . = not tested or not shown; & = joins results of further samples; [ ] = another dose, or the depositor's remark. Random draw from the library; any-hit rate near 5.3%.

SMILES | Sfp inh | gsp antag | ClpP mod | CtBP-E1A inh | TRPV1 PAM | Menin-MLL FL inh | gsp ag
CN(CCNC(=O)c1cccc(N2CCCC2=O)c1)Cc1ccccc1 | 1% | 17% | -1.1% | 4 | ? | 1.6 | 2%
CCN1CC(CNC(=O)c2ccc3nc(Cc4cccc(Cl)c4)oc3c2)CC1=O (configuration not stated) | 7% | 0% | -1.5% | . | 21 | 0.2 | 0%
CCCCC(=O)NC(c1ccc([N+](=O)[O-])cc1)c1c(O)ccc2ccccc12 (configuration not stated) | -5% | ? | -1.1% | -10 | -10 | 0.5 | 3%[15.4 µM]
O=C1CC(SCCO)C(=O)N1c1ccccc1 (configuration not stated) | 8% | 5% | 1.9% | 5 | 0 | 0.8 | -1%
Cc1cccc(CNC(=O)C2CCC(=O)N(Cc3ccccc3F)C2)n1 (configuration not stated) | 2% | 7% | -5.0% | -4 | 1 | 1.8 | 8%
CC(=O)Nc1ccc(Cc2ccncc2)cc1 | 13% | 1% | 2.1% | 0 | 0 | -0.4 | -39%[inhibitor]
CC(C)C(=O)Nc1cccc(NC(=O)c2ccc(Cl)cc2Cl)c1 | 6% | -16% | -1.6% | -12 | 0 | 1.8 | 28%
CC1C(=O)N(Cc2cn(Cc3ccco3)nn2)CCS(=O)(=O)N1Cc1ccc(-c2cccc(CO)c2)cc1 (configuration not stated) | . | . | -3.3% | -22 | . | . | -3%
c1ccc(-c2ccccc2OCCn2cncn2)cc1 | -8% | -5% | -0.1% | 3 | 1 | -0.5 | 14%
O=C(NN1C(=O)c2ccccc2C1=O)C1CC2CCC1C2 (configuration not stated) | -3% | 3% | -3.9% | 7 | 14 | 1.3 | 7%
O=C(NC1=NCCS1)C1CC(=O)N(c2ccc(Cl)cc2)C1 (configuration not stated) | 1% | -3% | 0.9% | . | -18 | -0.9 | -19%
CCCn1c(SCC(=O)Nc2ccc(NC(=O)CC)cc2)nc2c1c(=O)n(C)c(=O)n2C | 15% | 5% | . | -6 | 18 | -16 | 20%[15.4 µM]
CCCn1nnnc1SCC(=O)NCc1ccccc1 | 14% | -2% | -3.6% | 6 | 6 | 4.0 | 6%
COc1ccc(/C=C/C(=O)NC(=S)NNC(=O)c2ccco2)cc1 | 21% | 9% | -5.4% | -21 | 7 | -1.5 | 4%
CCOC(=O)CCn1cc(F)c(=O)n(Cc2ccccc2)c1=O | -4% | 12% | -1.6% | 6 | 1 | 5.7 | 24%
O=C(CNS(=O)(=O)/C=C/c1ccccc1)OCC(=O)N1CCC(Cc2ccccc2)CC1 | 14% | ? | -2.0% | -3 | -1 | -1.5 | 35%
COCCN(C(=O)c1ccc(OC2CCN(S(=O)(=O)N(C)C)CC2)cc1)C(C)C | 21% | 0% | 1.1% | . | 29 | -0.5 | -19%
O=C(Cc1ccc(F)cc1)N[C@@H]1c2ccccc2CC[C@H]1OCc1ccccc1 | . | -2% | 1.4% | 3 | . | . | .
COc1ccc(Cn2nnnc2C(C(C)C)N(Cc2ccco2)Cc2cccs2)cc1 (configuration not stated) | 18% | -3% | -5.8% | 0 | 8 | 2.6 | 10%
COCC(=O)Nc1ccc2c(c1)OCO2 | -11% | 11% | -1.6% | -6 | -9 | 2.1 | 11%[15.4 µM]
CCOC(=O)c1sc(NC(=S)NC(=O)CC(C)C)cc1C | ? | -21% | 3.0% | -4 | -3 | -0.7 | 27%
OC(CN1CCCCC1)c1ccc2c3c(cccc13)CC2 (configuration not stated) | . | 16% | . | -1 | . | . | 0%
NC(c1ccccc1)c1ccncc1 (configuration not stated) | -2% | 4% | -0.8% | . | -15 | 0.1 | -112%[inhibitor]
O=C(CC(SCCO)c1ccc([N+](=O)[O-])cc1)c1ccco1 (configuration not stated) | ? | ? | -0.4% | . | -12 | -6.5 | 19%
CC(=O)C1=C(C)N(CC2CC2)C(=O)N[C@H]1c1cccs1 | 25%&1% | -2% | -1.6% | 11 | 10 | 0.2&-1.7 | 0%
Later entries:
SMILES | Sfp inh | gsp antag | ClpP mod | CtBP-E1A inh | TRPV1 PAM | Menin-MLL FL inh | gsp ag
CCOc1ccc(N(C)S(=O)(=O)c2ccc(C)c(C(=O)NCc3cccs3)c2)cc1 | . | -6% | -4.1% | -2 | 6 | . | -1%
CCC(C)NC(=O)c1cccc(OCc2c(C)noc2C)c1 (configuration not stated) | 11% | 10% | . | -17 | -4 | -0.1 | -1%[15.4 µM]
Cc1ccc(N2C(=O)N(CC(=O)Nc3ccc(C)cc3C)C(=O)C2C)cc1 (configuration not stated) | 2% | -5% | 0.8% | -1 | -9 | -1.0 | ?
CCN(c1cccc2ccccc12)S(=O)(=O)c1ccc(Cl)nc1 | 16% | -10% | . | 3 | -22 | 1.1 | -12%[15.4 µM]
CCCCCCOc1ccc(C(CC(=O)NC)C(=O)O)cc1 (configuration not stated) | 15% | 1% | . | 14 | -2 | -0.6 | -37%[inhibitor]
CN(C(=O)C1CCCCC1)C1CCS(=O)(=O)C1 (configuration not stated) | . | 13% | . | 0 | -2 | . | -20%[15.4 µM]
Cc1nn(C)c(Nc2ccc(Br)cc2)c1Br | -1% | -6% | . | -2 | -7 | -1.3 | -4%[15.4 µM]
CCOC(=O)c1ccc(OCCOc2ccccc2C)cc1 | 4% | -1% | 0.7% | 53 | 28 | 0.0 | -4%[15.4 µM]
CCCN1CCc2[nH]c(=S)[nH]c(=O)c2C1 | 50µM* | 6% | -8.2% | -1 | 15 | 2.8 | -1%
C=CCN1C(=O)C(CC(=O)O)S/C1=N/N=C/c1ccc(N(CC)CC)cc1 (configuration not stated) | . | -22% | 4.2% | . | -2 | . | ?
CCCN(C(=O)CSCC(=O)Nc1ccc(OC)cc1)c1c(N)n(Cc2ccccc2)c(=O)[nH]c1=O | . | 9% | -8.5% | -17 | 6 | . | -7%
CCC1=Nc2ccc(Br)cc2C(c2ccccc2)N1CC(=O)OC (configuration not stated) | 12% | 1% | -1.5% | -7 | -7 | 0.9 | 15%[15.4 µM]
CCOc1cccc(/C=C/c2ccc3cccc(O)c3n2)c1O | 79µM* | -12% | . | -12 | 8 | 0.6 | 24%[15.4 µM]
CC1(C)Cc2cccc(Oc3ccc(S(=O)(=O)N4CCCCC4)cn3)c2O1 | 12% | -1% | -1.8% | 1 | -12 | -5.0 | -2%[15.4 µM]
CSc1ccccc1C(=O)N1CCN(c2ccc(F)cc2)CC1 | -2% | -4% | 4.8% | -7 | -6 | 1.6 | 2%
Cc1cccc(-n2c(CNC(=O)c3ccc(S(=O)(=O)N(C)C)cc3)nnc2SCC(=O)Nc2ccc(F)cc2)c1 | 2% | 1% | 1.2% | 1 | -18 | 0.9 | -2%[15.4 µM]
Cc1nc([N+](=O)[O-])cn1CC(O)c1ccc(Cl)cc1 (configuration not stated) | 14% | -3% | -0.7% | . | -4 | 0.6 | 17%
CCCCN1C(=O)C2Cc3c([nH]c4ccccc34)CN2C1=S (configuration not stated) | 56µM* | 8% | . | 0 | 14 | ? | -9%[15.4 µM]
COc1cccc(/C=N/n2c(-c3cc(C)[nH]n3)n[nH]c2=S)c1 | ? | -14% | . | -7 | 4 | -6.7 | -9%[15.4 µM]
CC[C@H](C)C(=O)O[C@H]1CCC=C2C=C[C@H](C)[C@H](CC[C@@H]3C[C@@H](O)CC(=O)O3)[C@H]21 | -2%&9% | -14% | 0.7% | -3 | 3&-31 | -11&0.5 | .
Clc1ccc2nc(N3CCNCC3)nc(-c3ccccc3)c2c1 | -25% | 13% | -2.5% | 0 | 2 | 2.9 | 6%[15.4 µM]
CCCCc1nnc(NC(=O)C23CC4CC(CC(NC(C)=O)(C4)C2)C3)s1 | 16% | -6% | -1.7% | -13 | 1 | . | -30%[inhibitor]
Cc1c(-c2ccc(Br)cc2)nc2ccccn12 | 3% | -8% | 25µM* | -15 | -9 | 3.3 | 11%
Cc1cc(/C=C(\C#N)C(=O)NCc2ccco2)c(C)[nH]1 | -1% | -7% | -1.3% | -6 | ? | ? | 15%
O=C(NNC(=O)c1cc([N+](=O)[O-])ccc1Cl)c1cccs1 | 17% | -2% | . | 0 | 4 | -0.7 | -5%[15.4 µM]
Next results follow:
SMILES | Sfp inh | gsp antag | ClpP mod | CtBP-E1A inh | TRPV1 PAM | Menin-MLL FL inh | gsp ag
CC(=O)c1sc(NC(=O)C2CC(=O)N(Cc3ccco3)C2)nc1-c1ccccc1 (configuration not stated) | . | 1% | 1.1% | -21 | 1 | . | -4%[15.4 µM]
O=C(NCCc1ccccc1)c1n[nH]c(=O)c2ccccc12 | 7% | 9% | . | 4 | -5 | -1.0 | 6%[15.4 µM]
Brc1ccc(-c2nc(-c3ccccc3)no2)o1 | -19% | -5% | -2.0% | 28 | -15 | 1.1 | 4%
CCCCCOc1ccc(Cl)cc1CN1CCOCC1 | 6% | -18% | -3.5% | -18 | ? | 0.8 | -32%[inhibitor]
CCN(CC)S(=O)(=O)c1ccc(N2CC(C(=O)NCc3ccco3)CC2=O)cc1 (configuration not stated) | . | . | 2.1% | -8 | . | . | -99%[inhibitor]
C=CCOc1ccccc1CN1CCCCCC1 | -9% | 10% | 0.2% | 2 | 4 | -0.3 | -1%[15.4 µM]
OCC[C@@H]1C[C@H](O)[C@@H](O)[C@]2(CCCc3ccccc3O2)O1 | 11% | 7% | 0.2% | 8 | 1 | -2.7 | 29%
O=C(CSc1nnnn1-c1cccc(F)c1)NC1CCCCC1 | . | -2% | 0.9% | -1 | 8 | . | -21%
O=C(/C=C/c1ccccc1Cl)Nc1ccc(Cl)cn1 | -11% | 6% | . | 12 | -4 | 3.2 | -2%[15.4 µM]
O=S(=O)(NN=C1CCCCC1)c1ccccc1 | 5% | 12% | . | 4 | -4 | 6.4 | ?
CC(=O)c1ccc(-c2nnc(CCC(=O)N(C)Cc3cnc4ccccn34)o2)s1 | 8% | -19% | 0.9% | -7 | 8 | -1.2 | 2%[15.4 µM]
CN(CC(=O)Nc1ccc(Cl)cc1)C1=NS(=O)(=O)c2ccccc21 | . | 4% | 0.2% | -2 | -11 | . | 2%
COc1ccc(C(=O)NC(=S)N2CCOCC2)cc1Br | -6% | 9% | -0.2% | 5 | -5 | 3.2 | ?
